CtBP-E1A blk = qHTS Assay for Inhibitors of the CtBP/E1A Interaction; AID 651724, 2012; AlphaScreen GST-E1A/His-CtBP binding, 1536-well; stronger effect = lower value; control for the full effect not named in the record; hit rate 0.49% among 340,000; activity change, % (concentration not given with the values); in the data active means activity change below about -65%; inconclusive means about -30% to -65%; inactive means above about -30%; also: % is scaled to controls: 0 for no effect and ±100 for the full control effect
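GST-E1A and His-tagged CtBP (125 nM each as 5X stock) were preincubated with pin-transferred compound for 2 h at 37 °C in the dark, then glutathione donor and nickel acceptor beads were added for 1 h before AlphaScreen reading.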
gsp antagonist = qHTS for Antagonists of gsp, the Etiologic Mutation Responsible for Fibrous Dysplasia/McCune-Albright Syndrome: qHTS | gsp-mutant cells, cAMP HTRF, 30 min; control for the full effect not named in the record | hit rate 0.4% among 340,000 | Potency, µM (highest dose often 76.9 µM), without a hit: top-dose activity change, negative = inhibition, actives largely listed as inhibitors; active = falling curve of any shape with a large fitted effect; inconclusive = falling curve, mostly with a smaller effect; inactive = flat or rising curve; cell line not stated here;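 also: intracellular cAMP measured with PDE inhibitor Ro 20-1724 present during compound exposure; potency is read from the fitted curve at half-maximal effect; % is scaled to controls: 0 for no effect and ±100 for the full control effect; nearly all actives have a fitted effect of over 65% in size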
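G418-selected cells were plated in DMEM/10% FBS for 16-24 h at 37C, then treated with compounds plus the PDE inhibitor […] (300 uM solution added) for 30 min at 37C. Intracellular cAMP was measured by HTRF after 30 min lysis at room temperature.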
Sfp inh = qHTS Assay for Inhibitors of Bacillus subtilis Sfp phosphopantetheinyl transferase (PPTase) | Potency, µM, inactives show max response, negative = inhibition, usual class: inhibitors | Biochemical Sfp PPTase activity, qHTS | hit rate 3.5% among 310,000 | 4'-phosphopantetheinyl transferase ffp (Bacillus subtilis), Q9F4F7 | AID 1490, 2009; active = well fitted inhibition curve with a large enough effect; inconclusive = small, poorly fitted or top-dose-only effect, or another doubt; inactive = no such curve, though single readings can be large or run the other way;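 also: the enzyme is Sfp with the accession as filed and its product quenches rhodamine fluorescence; potency is read from the fitted curve at half-maximal effect; 0% = enzyme reaction without inhibitor and -100% = no enzyme wells; top concentration of the series not given in the record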
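Fluorescence-quenching assay with 15 nM Sfp, 5 uM rhodamine-CoA and 12.5 uM BHQ-2-labelled ybbR peptide in pH 7.6 Hepes/MgCl2 buffer. Enzyme was pre-incubated with compound for 15 min at room temperature. Rate was taken from the 30-min fluorescence change (525/598 nm).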
ClpP mod = qHTS Assay for Activators of ClpP | Potency, µM (highest dose often 57.5 µM), without a hit: at the top dose activity change, negative = active | hit rate 1.9% among 340,000 | purified B. subtilis ClpP, FRET peptide cleavage, 20 min | ATP-dependent Clp protease proteolytic subunit (Bacillus subtilis (strain 168)), P80244; active = well fitted falling curve with a large enough effect; inconclusive = small, poorly fitted or top-dose-only effect; inactive = no such curve, though single readings can be large or run the other way; also: potency is read from the fitted curve at half-maximal effect; the source files actives as falling curves though it sought activators and does not explain the sign; nearly all actives have a fitted effect of over 65% in size; many hits overshoot -100%
Target sequence (P80244 whole entry, looked up): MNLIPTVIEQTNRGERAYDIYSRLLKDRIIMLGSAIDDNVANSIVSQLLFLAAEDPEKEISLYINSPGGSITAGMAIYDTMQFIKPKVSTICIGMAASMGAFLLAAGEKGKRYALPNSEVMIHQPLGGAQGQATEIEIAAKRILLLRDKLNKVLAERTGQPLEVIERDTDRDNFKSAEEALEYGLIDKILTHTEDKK
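ClpP 10 microg/mL final, pH 8 Tris/KCl buffer with BSA, glycerol, Tween-20; compound pinned in; FRET-FV substrate; RT 20 min; Ex320/Em430; ΔFRET vs ADEP 5.8 microM, DMSO, no enzyme.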
gsp ag = qHTS for Agonist of gsp, the Etiologic Mutation Responsible for Fibrous Dysplasia/McCune-Albright Syndrome: qHTS | gsp mutant cells, cAMP HTRF, 30 min; control for the full effect not named in the record | Potency, µM (titrated, usually from 76.9 µM), for inactives: top-dose activation (cAMP increase), hits mostly activators | hit rate 0.13% among 340,000; active = well fitted activation curve with a large enough effect; inconclusive = small, poorly fitted or top-dose-only effect, or another doubt; inactive = no such curve, though single readings can be large or run the other way; cell line not stated here;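 also: phosphodiesterase inhibitor Ro 20-1724 added with compounds to block cAMP breakdown; potency is read from the fitted curve at half-maximal effect; nearly all actives have a fitted effect of over 60% in size; about a fifth of the inactives were tested at one dose only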
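Cells in DMEM/10% FBS with G418 were pretreated with compounds in DMSO plus […] (300 uM stock) for 30 min at 37C. cAMP was measured by HTRF (cAMP-d2 plus anti-cAMP antibody-K) after 30 min at room temperature.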
TRPV1 PAM = HTS Assay for Compounds that Act as Potentiators of the Vanilloid Receptor 1. potentiation, % at 8.33 µM. TRPV1-expressing cells, Fluo-8 calcium influx, capsaicin EC20 potentiation; host cell line not named in the record; control for the full effect not named in the record. hit rate 0.02% among 320,000. Transient receptor potential cation channel subfamily V member 1 (Homo sapiens), Q8NER1; active means potentiation above 80%; inconclusive means 30% to 80%; inactive means below 30%; also: 0% is about no effect
Target sequence (Q8NER1 whole entry, looked up): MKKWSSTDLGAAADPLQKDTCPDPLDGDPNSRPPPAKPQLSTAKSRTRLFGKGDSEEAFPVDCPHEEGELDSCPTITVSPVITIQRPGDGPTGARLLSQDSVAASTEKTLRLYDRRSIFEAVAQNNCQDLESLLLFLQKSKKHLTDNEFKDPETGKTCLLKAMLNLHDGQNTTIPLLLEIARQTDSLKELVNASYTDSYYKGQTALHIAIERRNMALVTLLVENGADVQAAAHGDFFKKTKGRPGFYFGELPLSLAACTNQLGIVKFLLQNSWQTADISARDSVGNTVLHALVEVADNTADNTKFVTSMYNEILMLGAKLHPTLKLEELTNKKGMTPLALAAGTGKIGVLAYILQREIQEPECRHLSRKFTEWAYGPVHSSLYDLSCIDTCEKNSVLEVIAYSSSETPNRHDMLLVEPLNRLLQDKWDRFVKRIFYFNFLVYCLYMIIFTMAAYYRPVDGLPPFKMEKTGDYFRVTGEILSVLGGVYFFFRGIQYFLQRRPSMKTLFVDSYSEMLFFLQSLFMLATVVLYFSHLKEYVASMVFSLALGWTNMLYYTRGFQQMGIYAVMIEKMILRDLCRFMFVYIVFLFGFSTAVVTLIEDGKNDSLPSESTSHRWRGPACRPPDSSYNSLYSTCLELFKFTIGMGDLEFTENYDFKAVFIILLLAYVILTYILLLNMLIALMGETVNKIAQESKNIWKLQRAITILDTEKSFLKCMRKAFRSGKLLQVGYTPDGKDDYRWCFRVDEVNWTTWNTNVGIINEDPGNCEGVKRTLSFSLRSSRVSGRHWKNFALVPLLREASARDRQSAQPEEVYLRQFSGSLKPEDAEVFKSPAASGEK
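Fluo-8 calcium influx in TRPV1-expressing cells, kinetic read (ex 480/em 520 nm). Compound added and read 3 min for agonist activity, followed by capsaicin at EC20 final and 2 min further read for enhancement.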
Menin MLL FP FL = qHTS Assay for Inhibitors Targeting the Menin-MLL Interaction in MLL Related Leukemias: Competition With Fluorescein Labeled MLL-derived Peptide; Fluorescence polarization, fluorescein-MLL peptide displacement from menin; 290,000 tested, under 10 active; FP activity change, % at 61.4 µM; inconclusive = falling polarisation curve, or a change in total fluorescence; inactive = total fluorescence flat and polarisation flat or rising; no compound was filed as active; the % refers to the polarisation; negative = inhibition;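 also: % of control where 0% means no effect; inhibitors lower the polarisation; unlabelled MLL peptide was the positive control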
Numbers without * were called inactive; ? = inconclusive; . = not tested or not shown; & = joins results of further samples; [ ] = another dose, or the depositor's remark. No enrichment for hits (roughly 5.3% active in at least one column).

SMILES	CtBP-E1A blk	gsp antagonist	Sfp inh	ClpP mod	gsp ag	TRPV1 PAM	Menin MLL FP FL
CN(C)c1nc(N)nc(CSc2nc3cc(Cl)ccc3o2)n1	-4	1%	-1%	-0.6%	10%	14	4.8
CC(NC(=O)C1CCN(C(=O)c2ccc(F)cc2)CC1)c1ccc(-n2ccnc2)cc1 (centres undefined)	4	5%	.	1.3%	16%	3	.
CC1CCCN(c2c3c(nc4ccccc24)CCCC3)C1 (centres undefined)	2	-5%	4%	.	15%[15.4 µM]	-8	-3.5
Cc1ccc(NC(=O)OCCN2CCN(S(=O)(=O)c3ccc(C)cc3)CCC2=O)cc1	.	-5%	20%&6%	1.0%	-23%	19	-1.3&-0.2
CCN1/C(=C2/SC(=S)N(NC(C)=O)C2=O)Sc2ccc(Cl)cc21	.	-24%	1%	-23%	-5%	-3	?
C#CCOCCOCCOCCNc1nc(N2CCN(C(=O)[C@H](C(C)C)n3cc(CCO)nn3)CC2)nc(N2CCN(C(=O)[C@H](C(C)C)n3cc(CCO)nn3)CC2)n1	6	6%	-15%	1.7%	.	20	-1.7
C=C1C2C[C@H](O)C(C)(C)[C@@]2(O)[C@H](O)C[C@]23C[C@@](C)(O)[C@H](CC[C@H]12)[C@H]3O (some centres undefined)	3	14%	4%	2.3%	.	11	8.4
C=CCn1c(=O)c2ccccc2n2c(SCc3nc4ccccc4s3)nnc12	0	-15%	19%	-0.8%	?	-13	0.3
CCOc1ccc(-c2nc3ccccc3c(=O)o2)cc1	-15	4%	-9%	-1.2%&2.6%	-3%[15.4 µM]	9	-1.9
CC(C)c1nc2c(c(=O)c3ccccc3n2C)c(=O)n1-c1ccc(F)cc1	-9	10%	-23%	28µM*	?	-25	8.8
CC12CCC(C/C1=N/O)C2(C)CBr (centres undefined)	.	9%	5%	-0.5%	?	-3	6.5
CCOC(=O)CNC(=O)c1sc2ncnc(N3CCc4ccccc4C3)c2c1C	-6	-2%	-22%	-1.9%	22%	?	1.1
CC(=O)Nc1cccc(NC(=O)CCCC(=O)O)c1	4	6%	13%	-0.9%	-4%	?	-0.3
O=C(COc1ccc(Br)cc1)Nc1ccc(-c2nnc(-c3ccco3)o2)cc1	6	4%	-3%	10µM*	-131%[inhibitor]	28	2.5
O=C(CSc1nnc(-c2cccnc2)n1CCc1ccccc1)N1CCCCC1	11	5%	8%	1.5%	3%	-7	5.0
Cc1ccc(C(=O)NC2CCCCNC2=O)cc1 (centres undefined)	.	10%	8%	-0.2%	-2%	-9	-2.0
Cc1ccc2c(c1)cc(C(=O)NCc1ccccc1)n2C	-23	4%	12%	.	-38%[inhibitor]	-6	-1.2
COC(=O)C1=C(O)/C(=C\c2ccc(CNS(=O)(=O)c3ccccc3)o2)N=C1C	18	-3%	50µM*	-1.1%	0%	-5	?
O=C1CCCN1CCCNc1ccc(S(=O)(=O)N2CCCCC2)cn1	-18	2%	-1%	?	-74%[inhibitor]	17	3.2
CCOc1ccccc1N(CC(=O)NCC1CCCO1)C(=O)CNS(=O)(=O)c1ccccc1 (centres undefined)	-17	4%	5%	.	-2%[15.4 µM]	2	0.4
Nc1nnc(-c2ccccc2)s1	0	4%	0%	-19%	6%	0	1.5
CCOc1ccccc1N1CC(C(=O)NNC(=O)c2cc(OC)c(OC)c(OC)c2)CC1=O (centres undefined)	6	8%	.	2.0%	-26%	1	.
C#CCN1c2ccccc2Sc2cccnc21	?	3%	-7%	.	1%[15.4 µM]	25	?
C=CCN1C(=O)c2ccc(C(=O)N3CCC(C(=O)OCC)CC3)cc2C1=O	2	17%	.	-0.6%	-1%[15.4 µM]	-6	.
Cc1[nH]nc(-c2cccnc2)c1N=NN(C)C	-27	-5%	.	-0.6%	-52%[inhibitor]	.	.
(cont.)
SMILES	CtBP-E1A blk	gsp antagonist	Sfp inh	ClpP mod	gsp ag	TRPV1 PAM	Menin MLL FP FL
CCCCCn1c(CN2CCN(c3cccc(Cl)c3)CC2)nc2c1c(=O)n(C)c(=O)n2C	7	4%	-14%	-0.5%	8%	19	0.6
Cc1ccc(N2CC(C(=O)Nc3ccc(S(=O)(=O)N4CCOCC4)cc3)CC2=O)cc1 (centres undefined)	-6	-5%	?	-2.0%	-36%	5	10
Cc1ccc2cccc(O)c2[n+]1[O-]	-6	4%	1%	-0.5%	-33%	0	-0.8
CCOC(=O)c1c(C)nn(-c2ncccc2NC(=O)CCC(=O)O)c1C	0	5%	89µM*	.	-4%[15.4 µM]	?	1.8
COc1ccc(/C=C/C(=O)c2ccc3c(c2)OCCO3)cc1[N+](=O)[O-]	0	-1%	?	-5.7%	-3%	9	-0.9
Cc1cc(C(=O)COC(=O)c2ccc[nH]c2=O)c(C)n1-c1ccccc1	-5	-22%	18%	1.0%	-36%[inhibitor]	2	2.9
CC1(C(=O)OCC(=O)NNC(=O)COc2ccc(Cl)cc2)CC1(Cl)Cl (centres undefined)	-2	-1%	.	-2.4%	-4%[15.4 µM]	-4	.
COC(=O)c1ccc(CNC(=O)COC(=O)/C=C/c2ccc(O)c(OC)c2)cc1	-4	-17%	.	0.9%	3%[15.4 µM]	.	.
CC(C)OP(=O)(OC(C)C)C(NC(=O)c1ccc(Br)cc1)c1ccccc1 (centres undefined)	12	-3%	11%	0.5%	-23%	-25	4.1
CC1N(C(=O)N2CCOCC2)CCN1S(=O)(=O)c1ccc(Cl)cc1 (centres undefined)	6	8%	16%	.	26%[15.4 µM]	1	3.1
CN(C)c1ccc(S(=O)(=O)NCC(=O)OCC(=O)NC(=O)C2CCCCC2)cc1[N+](=O)[O-]	0	4%	.	-0.7%	23%	-3	.
Cc1noc(C)c1NC(=O)Nc1ccc2c(c1)C(=O)N([C@@H](C)CO)C[C@@H](C)[C@@H](CN(C)Cc1ccc3c(c1)OCO3)O2	2	4%	.	-8.7%	.	.	.
CC(C)(C)NC(=O)C(Cc1ccccc1)NS(=O)(=O)c1cccc2nsnc12 (centres undefined)	-7	-2%	11%	2.0%	-38%[inhibitor]	-13	8.5
CCOc1cc(CNC(C)(C)C)ccc1OCC(=O)Nc1cccc(C(F)(F)F)c1	-13	3%	11%	.	0%	0	-0.3
O=C(CSc1nncn1-c1ccccc1)NCc1cccs1	4	9%	12%	1.6%	-4%	-1	2.9
CC1(C)OC(C(O)(c2ccccc2)c2ccccc2)[C@@H](C(O)(c2ccccc2)c2ccccc2)O1 (some centres undefined)	8	13%	23%	0.6%	.	-12	0.0
COc1ccccc1-n1cc(-c2ccc(Br)cc2)[nH]c1=S	-15	3%	9%	.	?	8	-18
CCn1cc(SCC(N)=O)c2ccccc21	1	1%	?	-0.4%	-93%[inhibitor]	5	0.7
CCOC(=O)CSc1nc2ccc(S(=O)(=O)N3CCOCC3)cc2[nH]1	-3	4%	-3%	-2.9%	9%	1	4.6
O=C(NCCCn1ccnc1)c1ccc2nccnc2c1	?	8%	6%	-3.0%	?	-3	-3.4
CCn1c(=O)n(CC)c2cc(N3CCCC3)c(NC(=O)c3cccc(OC)c3)cc21	.	-25%	-13%	0.2%	?	-6	-5.4
CC(C)(C)OC(=O)N[C@@H](Cc1ccccc1)C(=O)N[C@@H](CO)[C@H](O)[C@@H]1C[C@@H]1C(=O)NC1CCCCC1	2	5%	.	0.7%	.	.	.
COC(=O)C(Oc1ccc2c(-c3ccc(OC)cc3)cc(=O)oc2c1)c1ccccc1 (centres undefined)	1	-4%	6%	-26%	-35%[inhibitor]	-9	-1.4
CCCCNC(=O)CCNS(=O)(=O)c1ccc(Br)cc1	13	5%	17%	-6.4%	-32%	-15	-2.7
COc1ccc(Cl)cc1NS(=O)(=O)c1cccc(C(=O)N2CC(C)OC(C)C2)c1 (centres undefined)	3	-7%	.	2.0%	-5%	-2	.
Continued.
SMILES	CtBP-E1A blk	gsp antagonist	Sfp inh	ClpP mod	gsp ag	TRPV1 PAM	Menin MLL FP FL
Cc1ccc(N=Nc2cc(C)ccc2O)c(C)c1	?	?	5%	-1.1%	24%	-9	-9.1
Cc1ccc(NC(=O)N(Cc2nc3ccccc3c(=O)[nH]2)Cc2cccs2)cc1	-4	-4%	-3%	0.9%	9%	-4	5.4
O=C(NCCc1ccccc1)C1CCCN(S(=O)(=O)c2cnc[nH]2)C1 (centres undefined)	2	2%	3%	0.8%	?	8	0.2
CC(C)N(C(=O)[C@H]1CC(CC(=O)NCC23CC4CC(CC(C4)C2)C3)C(=O)N2CCc3c([nH]c4ccccc34)[C@]12C)C(C)C (some centres undefined)	-1	-11%	.	-1.7%	.	.	.
COc1ccccc1NS(=O)(=O)c1cccc2cccnc12	0	-11%	22%	0.5%	16%	2	4.3
CC(NCC(=O)Nc1ccccc1C(=O)NC1CC1)c1ccc(S(N)(=O)=O)cc1 (centres undefined)	.	0%	.	-2.9%	3%	22	.
CCc1ccc(-n2c(CSc3nnnn3-c3ccccc3)nc3ccccc3c2=O)cc1	2	-7%	6%	1.8%	-6%	-6	-1.3
COc1nc(-c2ccccc2)c2cc(Br)ccc2n1	.	3%	.	4.0%	13µM*	.	.
COC(=O)c1cccc(NC(=O)c2nn(C(C)C)c(=O)c3ccccc23)c1	-6	-1%	14%	-2.5%	6%	-20	1.0
O=C(NNC1=NCCC1)c1cccc(S(=O)(=O)N2CCOCC2)c1	.	5%	-15%	-0.5%	-6%	-1	3.6
O=c1c2ccccc2ncn1/N=C/c1ccccc1	-6	-4%	12%	.	-7%[15.4 µM]	-11	3.4

Screening results (PubChem)
